Screening data (PubChem BioAssay)
HCMV UL50-53 inh – inhibitors of HCMV UL50-UL53 nuclear egress complex interaction | HTRF UL50-UL53 interaction, normalized percent inhibition | inhibition, % (concentration not given with the values) | actives 0.15% (n = 190,000);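 active = both replicates at 50% or more, plus weaker picks with an unusually low signal ratio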;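 note: stock transfer was 100 nL into about 20 µL; 0% = negative control wells and 100% = wells with untagged competitor protein; inactives centre near -12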
GIV-Gai inh – inhibitors of GIV GBA-motif binding to rat Galpha-i3. P08753. Galpha-i3/FITC-GIV peptide fluorescence polarization, 90 min; active compounds read low; scaled: aluminum fluoride 0%, vehicle 100%. percent of control (FP), % (concentration not given with the values). actives 0.42% (n = 210,000). AID 1224905;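 active = replicate mean at 85% of control or lower, very high polarization wells dropped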;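 note: wells of about 15 µL received 100 nL stock; the first replicate is given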
Target sequence (P08753 whole entry, looked up): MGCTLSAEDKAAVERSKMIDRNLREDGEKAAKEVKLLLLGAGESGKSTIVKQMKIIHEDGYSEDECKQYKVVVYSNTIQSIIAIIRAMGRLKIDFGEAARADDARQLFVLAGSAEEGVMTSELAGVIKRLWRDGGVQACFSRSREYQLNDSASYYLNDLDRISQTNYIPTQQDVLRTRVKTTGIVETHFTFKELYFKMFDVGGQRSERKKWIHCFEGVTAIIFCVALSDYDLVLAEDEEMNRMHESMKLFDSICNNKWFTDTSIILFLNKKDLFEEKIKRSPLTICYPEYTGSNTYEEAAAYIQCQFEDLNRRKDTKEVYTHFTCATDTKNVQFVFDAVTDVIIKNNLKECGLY
Sa growth inh – blocks Staphylococcus aureus growth; AID 720641; relative growth, % (concentration not given with the values); actives 0.53% (n = 170,000); S. aureus RN4220 growth, OD600, 20 h, 42 °C; active compounds read low;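 active = growth at 42 °C up to 50% and 20 or more points under that at 30 °C, or under 10% at both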;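 note: 300 nL library stock went into each well; scaled to the means of positive and negative controls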
Sa growth inh second temp – recorded beside Sa growth inh, whose call it bears; relative growth, %; measured here: growth at 30 °C;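 optical density after 20 h as mean of two plates; 100% = untreated growth and lower means inhibition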
The depositor's hits bear a star; . = no result given; & = joins results of further samples.

compound,HCMV UL50-53 inh,GIV-Gai inh,Sa growth inh,Sa growth inh second temp
Cc1ccc(C(C)C)c(OCC(=O)Nc2ccc(-c3nc4ncccc4o3)cc2C)c1,-2,104,93,92
CCCC1c2cccn2CCN1C(=O)NCc1ccccc1 (stereo not given),6,105,105,102
COc1ccc(NC(=O)c2oc3ccc(S(=O)(=O)N4CCC5(CC4)OCCO5)cc3c2C)cc1,.,100,114,83
Fc1ccc(CNc2nc(-c3ccccc3)cc(C(F)(F)F)n2)cc1,-7&11,99&98,70,81
COc1cc(OC)c([N+](=O)[O-])cc1/C=C1/C(=O)NC(=O)N(c2cccc(C)c2)C1=O,3,116,.,.
COc1ccccc1NC(=S)Nc1ccccc1,-6,.,95,82
CC(C)n1c(=N)c(C(=O)NC2CCCCC2)cc2c(=O)n3ccccc3nc21,-29,103,105,90
Cc1ccc(NC(=O)C2CCN(S(=O)(=O)c3c(C)noc3C)CC2)cc1C,-13,100,112,90
Cc1cccc(C(=O)N2CC(C)C(=O)Nc3ccccc32)c1 (stereo not given),-15,108,.,.
CCn1c(NNC(=O)c2cccnc2)nc2ccccc21,-4,97,95,81
CCOc1ccccc1NC(=O)C1CCC(=O)N1S(=O)(=O)c1ccc(C)cc1 (stereo not given),6,102,66,52
Cc1cc2n(n1)C(c1ccccc1)Nc1ccccc1-2 (stereo not given),-6,101,102,84
CNC(=O)CSc1nc2ccccc2[nH]1,.,100,91,96
Cc1ccc(-c2cc(C)n3nc(N4CCOCC4)c(C#N)c3n2)cc1,-4,.,102,93
Cc1cc(=O)oc2c(C)c3occc(=O)c3cc12,-24,104,.,.
O=C(N/N=C/c1ccc(F)cc1)c1ccc(NC(=O)C2CC2)cc1,-6,110,74,81
CC1=C(C(=O)Nc2nc3ccccc3s2)C(c2cccc(Br)c2)C2=C(CCCC2=O)N1 (stereo not given),10,108,.,.
c1csc(-c2nnc3n2-c2ccccc2SC3)c1,-30,106,103,89
O=C(NCc1cccnc1)C1CCCCN1S(=O)(=O)c1ccc(F)cc1 (stereo not given),-4,101,128,79
Cc1c(NC(=O)COC(=O)c2ccc(S(=O)(=O)N3CCCC3)cc2)c(=O)n(-c2ccccc2)n1C,-1,.,113,93
CCN(CC)C(=O)C1=C(C)Nc2nnnn2C1c1cccnc1 (stereo not given),-17,103,104,85
Cc1ccc(CNC(=O)c2ccc3nc(N4CCCCC4)sc3c2)cc1,-8,97,98,94
O=c1ccc(-c2ccc(S(=O)(=O)NCCCc3ccco3)s2)n[nH]1,-68,108,98,89
CCOC(=O)CSc1nc(SCC(=O)OCC)c2c3c(sc2n1)CCC3,22,99,108,99
Cc1ccc2c(=O)c(C(=O)c3ccc(Cl)cc3)cn(CC(=O)Nc3ccc4c(c3)OCCO4)c2n1,.,107,94,90
COC(=O)Nc1ccc(S(=O)(=O)C(F)F)cc1,-3,102,97,103
O=C(Cn1cc(SCc2ccc(F)cc2)c2ccccc21)N1CCCC1,.,111,102,119
COc1ccccc1NC(=O)C1=C(C)NC(=S)NC1C (stereo not given),-20,99,100,90
S=c1n(CN2CCOCC2)nc(Cc2cccs2)n1C1CCCCC1,-49,.,78,92
Cn1c(=O)c2c(nc(Sc3nnc(NC(=O)C4CC4)s3)n2C)n(C)c1=O,-21,97,.,.
COc1ccc(/C=C2/C(=N)N3OC(C)=CC3=NC2=O)cc1,-52,96,97,85
NC(=O)CSc1nnc(COc2ccccc2)n1C1CCCCC1,-32,103,125,94
Cc1ccc(C2=NC(c3ccccc3)=Nc3ccc(Cl)cc3N2)cc1,-30,91,107,87
CC1(C)N([O-])C2=C(CCCC2)[N+]1=O,-50,103,91,68
CCOC(=O)c1cc(-c2ccccc2)n(CC(=O)N2CCN(c3cc(Cl)ccc3C)CC2)c1C,.,106,84,90
O=C(O)CNC(=O)c1cccnc1Oc1ccccc1,-11,105,85,84
Cc1ccc2c(c1)C(c1ccccc1)N(C(=O)c1ccc(Br)cc1)CC(=O)N2 (stereo not given),-6,100,.,.
CN(CC(=O)N1CCN(c2ccccc2F)CC1)S(=O)(=O)c1c[nH]c(C(=O)N2CCCC2)c1,10,110,.,.
CCOC(=O)c1c(C)n(C)c2c1cc(OC(=O)COc1ccccc1C)c1ccccc12,-6,97,.,.
CCOC(=O)Cn1c(O)c(N=NC(=O)c2cccc(F)c2)c2ccccc21,-50,103,102,104
CN(C(=O)CSc1cc(Cl)ccc1Cl)c1ccc(F)cc1F,-5,107,107,111
Cc1ccc(-n2nnc(C(=O)NC(C)C)c2C)cc1,-30,104,87,84
CCCN1C(=O)C(O)(C2COC(C)(C)CC2=O)c2cc(C)ccc21 (stereo not given),-127,100,93,84
Cc1ccc(-n2ncc3c(N4CCCCCC4)ncnc32)cc1Cl,.,104,125,92
O=C(CCSCc1ccccc1Cl)NCc1ccc(F)cc1Cl,.,103,111,102
CSCCC(=O)N1CCN(S(=O)(=O)c2ccc(C)cc2)CC1,-7,.,89,94
Oc1oc(-c2ccccc2)nc1C1=NCCC1,-58,.,107,97
COc1ccccc1C(N)=S,-12,.,77,89
Cn1c(=O)c2nc3ccc(NC(=O)Nc4ccccc4)cc3nc2n(C)c1=O,15,107,108,99
Cc1cc2occ(CC(=O)OC(C)C(=O)NC3(C#N)CCCCC3)c2cc1C (stereo not given),-18,.,67,92
CC(=O)Nc1ccc(OCC(O)CN2CCN(C(c3ccccc3)c3ccccc3)CC2)cc1 (stereo not given),-26,105,74,79
O=C(CC1=NS(=O)(=O)c2ccccc2N1)NC1CCCC1,-11,113,92,97
CCCNC(=O)Nc1cccc(-c2noc(-c3cccc(F)c3)n2)c1,4,109,.,.
COc1cccc(N2C(=O)CC(N3CCC(C(N)=O)(N4CCCCC4)CC3)C2=O)c1 (stereo not given),4,108,93,90
COc1cc(C=C2C(=O)NC(=O)NC2=O)ccc1OCc1ccccc1[N+](=O)[O-],-11,101,.,.
COc1cccc(CN(C)C(=O)c2ccccc2Cl)c1OC,0,.,90,94
CCOC(=O)c1ccc(NC(=O)c2csc3c2CCCCC3)cc1,-1,102,98,75
CC1CCN(C(=O)C2C3C=CC(C3)C2C(=O)O)CC1 (stereo not given),10,.,87,91
COc1cccc(C2=CC(c3ccccc3F)n3c(nc4ccccc43)N2)c1 (stereo not given),.,101,108,57
CCOc1ccc(CCNC(=O)NCc2noc3ccc(C)cc23)cc1,.,101,88,81

The results go on.
compound,HCMV UL50-53 inh,GIV-Gai inh,Sa growth inh,Sa growth inh second temp
CCOC(=O)c1nc(Nc2ccc(Br)cc2F)c2c(C)noc2n1,-16,98,.,.
CC(C)(C)c1cc(C(=O)NCc2cccs2)cc(C(=O)NCc2cccs2)c1,-12,96,92,81
S=c1nc[nH]c2c1nnn2Cc1ccccc1,44,96,103,82
CN(C)c1ccc(CNCc2ccccc2)cc1,-17,99,83,85
O=C(Nc1ccccc1)N(Cc1ccco1)C1CCS(=O)(=O)C1 (stereo not given),-7,110,97,103
CNC(=O)NC(=O)C(C)N1CCN(C/C=C/c2ccccc2)CC1 (stereo not given),-10,.,94,96
CC(c1ccccc1)n1cnc2c(cnn2-c2ccc(F)cc2)c1=O (stereo not given),-10,104,105,92
Cc1ccc(NC(=O)C(=O)NCC(c2cccnc2)N2CCN(C)CC2)cc1 (stereo not given),-9,107,122,92
CCCCNc1oc(-c2ccccc2)nc1S(=O)(=O)c1ccccc1,-24,105,.,.
Cc1c(O)ccc(-c2[nH]ncc2-c2nc3ccccc3s2)c1O,.,105,105,81
CCSc1nn(CC(=O)Nc2cccc(Cl)c2)c(N)c1S(=O)(=O)c1ccc(OC)cc1,9,99&108,86,76
Cn1/c(=N/N=C(\CCC(=O)O)c2cccs2)sc2ccccc21,-11,.,92,76
O=C(/C(=N/O)c1nc2ccccc2s1)c1ccco1,2,108,116,85
COc1ccc(OC)c(NC(=O)N2Cc3c(sc4c3CCN(C)C4)-n3cccc3C2C)c1 (stereo not given),-17,109,.,.
O=C(CN1CCc2ccccc21)Nc1nnc(-c2cccs2)s1,-13,94,89,67
CCC(C)NC(=O)CN1CCN(Cc2ccc(Cl)cc2)C1=O (stereo not given),.,102,123,93
CC1(C)N=C(NC(=O)NC(=O)c2ccccc2Cl)N(c2ccccc2)O1,-26,102,100,89
Cn1/c(=N/N=C2\C(=O)Nc3ccc(F)cc32)sc2ccccc21,-23,.,92,88
N=C1S/C(=C\c2ccc(-c3cccc(C(=O)O)c3)o2)C(=O)N1c1ccc2c(c1)OCO2,-21,109,.,.
CC(NCc1nc2ccccc2n1C)C12CC3CC(CC(C3)C1)C2 (stereo not given),.,113,80,77
Cc1cccc(Oc2coc3cc(OC(=O)c4cncc(Br)c4)ccc3c2=O)c1,-21,106,.,.
CNc1oc(-c2ccc(Cl)cc2)nc1S(=O)(=O)c1ccc(F)cc1,5,105,.,.
CC(C)Cc1nc2cccnc2n1C1CCN(S(C)(=O)=O)CC1,-12,106,.,.
CCOc1ccc(CCNC(=O)CC2Oc3ccccc3NC2=O)cc1 (stereo not given),-8&-3,100&105,94,94
CCCC1=Nc2cc(C(=O)NC)ccc2Sc2ccccc21,.,105,75,86
CCOC(=O)c1[nH]c(C)c(C(=O)N2CCN(c3ccccc3)CC2)c1CC,12,105,98,101
CCCCCN1CC(C)C(=O)Nc2ccccc21 (stereo not given),-15,103,.,.
COc1cc(-c2nnn(CC(=O)Nc3ccc(OC(F)(F)F)cc3)n2)cc(OC)c1OC,-2,103,96,82
Cc1ccc(-c2nc3c(cnn3-c3ccccc3)c(=O)n2-c2ccccc2)cc1,-9,96,.,.
Cc1noc(N2C(=O)C3C4C=CC(C4)C3C2=O)c1C (stereo not given),-22,101,68,88
O=C(NCC1CCC(C(=O)Nc2ccc3c(c2)OCO3)CC1)c1ccc(=O)[nH]c1 (stereo not given),.,102,81,85
Cc1nn(C)c2c1c(C(F)(F)F)cc(=O)n2C(C)C(=O)NCc1ccccc1Cl (stereo not given),.,106,89,96
CCOc1ccccc1CNC(=O)C(C)n1ncn2cccc2c1=O (stereo not given),-21,99,103,84
Cc1ccc(CS(=O)(=O)Cc2ccc(C(=O)NCC3CCCO3)o2)cc1 (stereo not given),7,103,90,78
CCc1cccc(NC(=O)c2cccc3c2C(=O)N(C2CCCCC2)C3)c1,-26,110,99,91
C=CCSc1nc2c(-c3ccccc3)cn(C)c2c(=O)n1-c1ccc(CC)cc1,-15,102,.,.
CN(C)S(=O)(=O)c1ccc2c(c1)N(CC(=O)N1CCN(c3ccccc3F)CC1)CCS2,.,111,96,99
CN(CCO)c1nc2cc(Cl)ccc2s1,-7,95,104,92
CCOC(=O)CCNC(=O)N1CCc2c([nH]c3ccccc23)C1c1ccccc1F (stereo not given),-10,102,.,.
O=C(Oc1ccc2sc(=O)oc2c1)c1cccs1,.,101,91,86

Full records as entered above. Screens in order: HCMV UL50-53 inh	GIV-Gai inh	Sa growth inh	Sa growth inh second temp
COc1cccc(CN(C)C(=O)c2ccccc2Cl)c1OC in the list: 0	.	90	94
CCOC(=O)c1c(C)n(C)c2c1cc(OC(=O)COc1ccccc1C)c1ccccc12 in the list: -6	97	.	.
S=c1n(CN2CCOCC2)nc(Cc2cccs2)n1C1CCCCC1 in the list: -49	.	78	92
Oc1oc(-c2ccccc2)nc1C1=NCCC1 in the list: -58	.	107	97
O=C(O)CNC(=O)c1cccnc1Oc1ccccc1 in the list: -11	105	85	84

Other results.
compound,HCMV UL50-53 inh,GIV-Gai inh,Sa growth inh,Sa growth inh second temp
Cn1ccnc1C(O)c1ccc2c(c1)OCO2 (stereo not given),-7,110,106,101
CCOC(=O)c1c(S(=O)(=O)NCC(=O)N2CCN(c3cccc(Cl)c3)CC2)c(C)n(C)c1C,.,108,90,98
O=C(Cn1nc2n(Cc3ccccc3)c(=O)c3ccccc3n2c1=O)c1ccc(F)cc1,-35,99,.,.
Cc1ccc(C)c(NC(=O)CSc2nnc(-c3cc4occc4n3C)n2-c2ccccc2C)c1,.,105,114,97
O=c1[nH]c(CSc2ccccn2)nc2c1oc1ccccc12,.,100,112,97
COc1ccc(CNC(=O)CCCn2nc(C)c3c(C)n(-c4ccc(C)cc4)nc3c2=O)cc1OC,.,106,102,93
Cc1ccccc1N(C)C(=O)c1ccc2c(=O)n3c(nc2c1)CCCCC3,-6,107,104,90
O=C(Nc1ccc(CCc2nc3ccccc3[nH]2)cc1)c1cc2cc(Cl)ccc2[nH]1,-26,107,.,.
Cc1cccc(-c2nc3sc4c(c3c(=O)[nH]2)CCCC4)c1,.,101,84,88
CN(CC(=O)Nc1ccc(SC(F)F)cc1)C1CCCCC1,-13,.,111,86
